LANA-H2B inh – blocks KSHV LANA binding to histone H2A/H2B; Q9QR71; cell-free LANA-H2A/H2B peptide, fluorescence polarization; inhibition, % (test concentration not listed); 320,000 compounds, 0.6% hits; AID 2629; in the data active = inhibition mostly above about 10%, no sharp cut-off; inactive = mostly below about 6.7%;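 also: stock transfer was 7.5 nL into about 10 µL; 0% = median of vehicle wells and 100% = median of positive control wells; one replicate is shown; the record names a cut of 25% in any replicate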
Target sequence (Q9QR71 whole entry, looked up): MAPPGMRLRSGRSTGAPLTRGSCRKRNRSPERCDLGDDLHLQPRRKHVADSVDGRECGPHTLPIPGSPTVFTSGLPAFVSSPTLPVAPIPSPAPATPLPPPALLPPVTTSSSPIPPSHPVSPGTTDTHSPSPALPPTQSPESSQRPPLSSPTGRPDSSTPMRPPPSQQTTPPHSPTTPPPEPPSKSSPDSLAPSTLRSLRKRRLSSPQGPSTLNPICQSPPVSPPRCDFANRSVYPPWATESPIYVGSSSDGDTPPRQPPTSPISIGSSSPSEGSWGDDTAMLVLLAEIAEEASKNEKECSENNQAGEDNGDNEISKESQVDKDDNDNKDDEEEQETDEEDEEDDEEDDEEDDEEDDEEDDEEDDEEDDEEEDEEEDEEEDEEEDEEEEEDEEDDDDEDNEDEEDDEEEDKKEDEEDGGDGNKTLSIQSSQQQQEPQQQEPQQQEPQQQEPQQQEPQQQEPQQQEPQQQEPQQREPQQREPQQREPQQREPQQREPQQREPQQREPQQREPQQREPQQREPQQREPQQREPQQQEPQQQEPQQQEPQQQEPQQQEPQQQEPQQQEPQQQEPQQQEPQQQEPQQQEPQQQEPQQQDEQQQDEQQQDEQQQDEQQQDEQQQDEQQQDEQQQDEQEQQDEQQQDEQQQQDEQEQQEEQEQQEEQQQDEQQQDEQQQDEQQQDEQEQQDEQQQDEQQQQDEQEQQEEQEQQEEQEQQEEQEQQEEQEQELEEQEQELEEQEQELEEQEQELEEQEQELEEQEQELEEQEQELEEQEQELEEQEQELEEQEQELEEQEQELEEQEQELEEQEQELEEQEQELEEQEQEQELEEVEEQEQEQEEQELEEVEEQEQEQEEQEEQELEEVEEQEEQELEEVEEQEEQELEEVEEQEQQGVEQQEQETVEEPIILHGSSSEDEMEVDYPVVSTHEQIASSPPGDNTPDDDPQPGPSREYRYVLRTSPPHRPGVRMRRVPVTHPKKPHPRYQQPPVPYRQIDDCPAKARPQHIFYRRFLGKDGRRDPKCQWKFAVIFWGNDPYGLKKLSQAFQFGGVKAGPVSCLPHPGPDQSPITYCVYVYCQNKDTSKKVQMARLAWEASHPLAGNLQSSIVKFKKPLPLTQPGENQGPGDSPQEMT
HNF4A DNA FP – change in binding of human HNF4 alpha to DNA; P41235; HNF4a-FITC DNA binding, fluorescence polarization, 1 h; activity change, % at 10 µM; 360,000 compounds, 0.3% hits; AID 1224865; in the data active = activity change above about 30%, passing the limit was not always enough;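 also: controls were the assay level and a saturating level of protein; the project sought stronger binding though the title names inhibitors; some compounds called inactive have numbers as strong as hits; positive values seem to mean higher polarization but the record does not say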
ALR inh – human ALR oxidase inhibition via reduced H2O2. P55789. purified ALR, DTT oxidation, H2O2 HRP-luminol luminescence. inhibition, % (no concentration beside the values). 290,000 compounds, 3.8% hits;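 active = mean and each replicate at 75% or more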;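 also: stock transfer was 7.5 nL into about 7.5 µL; 0% = neutral wells and 100% = wells with inactivated enzyme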
FGF22 binding – FGF22 (human) thermal shift binding; Q9HCT0; recombinant FGF22 thermal shift, SYPRO orange fluorescence; percent of sucrose octasulfate shift, DMSO zero; calls only at 9.99 µM; 340,000 compounds, 1.5% hits;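 active = melting point raised past a set limit in the mean and every replicate; three in four hits are not shown here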
Ecoli growth – E. coli growth inhibition. 330,000 compounds, 0.21% hits. AID 1053175. OD600 absorbance (concentration not given with the values). Escherichia coli growth, OD600, 23 h; stronger effect = lower value;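 active = OD600 absorbance below the run mean of sample wells minus 3.6 SD, in any replicate, cut at about 0.56 in these data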;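 also: stock transfer was 300 nL into about 60 µL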
UCH37 inh – inhibitors of human deubiquitinating enzyme UCH37; purified proteasome/UCH37, Ub-AMC cleavage fluorescence; inhibition, % (concentration not given with the values); 330,000 compounds, 0.33% hits;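 active = mean of two replicates above 20%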;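 also: 0% = compound-free wells with enzyme and 100% = wells lacking proteasome; stock transfer was 100 nL into about 20 µL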
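assay system = human UCH37 enzyme supplied as purified proteasome complex | amount = proteasome at 0.15 nM in the dispensed enzyme solution | schedule = 30 min compound-proteasome preincubation then 25 min substrate reaction, room temperature | measured by = fluorescence, ex 355 nm, em 460 nm | benchmarks = no-proteasome wells (full inhibition) and compound-free wells (no inhibition)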
B2AR ag – human beta-2 adrenergic receptor agonism by FAP; 340,000 compounds, 0.43% hits; Am2.2-beta2AR cells, FAP receptor internalization, flow cytometry; reference of the scale not given here; AID 504454; response, % (no concentration beside the values);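 active = response above a set limit, near 3 SD of response in nonfluorescent compounds, cut at about 42% in these data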;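 also: stock transfer was 100 nL into about 11 µL; a reference agonist was the positive control; negative values mostly stem from fluorescent compounds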
An asterisk follows results filed as active; i = inactive; . = no result given; & = joins results of further samples.

Molecule	LANA-H2B inh	HNF4A DNA FP	ALR inh	FGF22 binding	Ecoli growth	UCH37 inh	B2AR ag
O=c1c2ccc(Cl)cc2[nH]c(=S)n1CCC1=CCCCC1	-1.8	1.3	-4.0	.	0.737	3.6	-7.8
Cc1nnc(SCC(=O)NC2CCCCC2)n1N	.	8.0	.	i	0.633	1.3	2.0
Cc1ccc(Nc2cc(C)c3ccc(O)cc3n2)cc1C	-0.9	3.9	87.5*	i	.	.	16.4
O=C(COC(=O)c1ccco1)c1ccc(S(=O)(=O)N2CCCCC2)cc1	-19.4	-0.3	-0.3	i	0.7	0.3	1.4
NC(=O)c1ncn([C@@H]2O[C@H](CNCc3cnc(N4CCOCC4)s3)[C@@H](O)[C@H]2O)n1	.	-2.5	.	i	.	.	-16.6
COc1cccc(OC(=O)c2ccccc2)c1OC(=O)c1ccccc1	.	-3.0	.	i	0.707	5.2	-26.8
CNC(=O)CSc1nnc(COc2ccc([N+](=O)[O-])cc2)n1C	10.0	1.7	-3.0	i	0.642	4.5	9.7
CCOc1ncccc1C(=O)N(CC)CC(=O)NCc1ccc(F)cc1	4.1	0.9	-6.4	i	0.637	0.9	6.6
CC(=O)OCC1OC(n2cc(F)c(=O)[nH]c2=O)C(OC(C)=O)C1OC(C)=O (centres undefined)	0.8	1.4	-35.0	i	0.648	1.0	1.6
CC(C)(C)OC(=O)N1CCN(CCNC(=O)c2ccccc2)CC1	3.7	1.6	-0.4	i	0.677	2.4	-5.4
O=C(COC(=O)C12CC3CC(CC(C3)C1)C2)Nc1ccccc1F	2.4	0.2	-2.5	.	0.661	2.4	-2.9
CC(C)(C)OC(=O)C[C@H]1C/C=C\C[C@@H](CC(=O)NCCO)C(=O)N[C@H](C(C)(C)C)COC1=O	.	1.8	.	i	0.684	-2.5	-3.4
O=C(Nc1cccc(-c2nc3ccccc3[nH]2)c1)c1ccc(C(=O)Nc2cccc(-c3nc4ccccc4[nH]3)c2)cc1	-3.2	81.8*	-5.2	i	0.655	-4.9	-2.9
Clc1ccc(-c2ccc(C=Nc3ccc(N4CCOCC4)cc3)o2)cc1	6.0	-1.2	8.1	i	0.669	2.7	2.9
COc1ccc(CNCc2ccc3ccccc3c2)c(OC)c1	-2.0	5.9	-1.0	i	0.621	1.6	19.3
Cc1ccccc1OCCSc1nnc(-c2ccncc2)n1C	2.0	4.1	-26.5	.	0.712	2.2	5.8
O=C(N/N=C/c1cccc(NC(=O)c2ccc(Cl)cc2)c1)c1ccc(O)cc1	-5.6	0.8	-2.6	i	.	.	22.5
CCOc1ncccc1C(=O)Nc1ccccc1F	-1.0	0.5	1.1	i	0.664	0.7	1.2
Fc1ccc(COc2ccccc2-c2ccnc3ncnn23)cc1	2.2	4.0	-20.1	i	0.638	-32.0	-6.7
O=C(NC1CCCCC1)c1ccc(NS(=O)(=O)c2cccc3cccnc23)cc1	0.6	-0.3	.	i	0.73	1.1	-3.9
O=C1NC(c2cccc(Cl)c2)Oc2ccccc21 (centres undefined)	-17.7	0.6	.	i	0.621	2.5	-4.5
Cc1ccc(C)c(S(=O)(=O)N2CCN(Cc3cc4c(cc3O)OCO4)CC2)c1	-2.4	-0.9	-67.1	i	0.7	-0.2	-2.3
O=C(CSc1nnc(NC(=O)c2ccc3c(c2)OCO3)s1)NCc1ccco1	-1.3	-3.4	9.3	i	0.676	1.3	1.1
CCc1ccccc1NC(=O)CCc1nc(-c2ccc(C)cc2)no1	-3.9	-0.1	-2.5	.	0.806	5.9	2.6
Cc1cc(CN(C)C(=O)CCc2nnc(Cc3cccc(C(F)(F)F)c3)o2)on1	-4.9	-0.1	-15.7	i	0.637	0.6	0.9
CCOC(=O)c1ccc(NC(=O)c2nc[nH]c2C(=O)N[C@@H](Cc2ccccc2)C(=O)OC(C)(C)C)cc1	4.6	-3.1	-6.7	i	.	0.7	-6.3
CC1CCCN(S(=O)(=O)c2cc3c4c(c2)CCN4C(=O)CC3)C1 (centres undefined)	6.1	-0.9	3.4	i	0.658	0.2	-4.6
COc1ccc(NC(=O)C2CCC(=O)N2S(=O)(=O)c2ccc(C)cc2)c(OC)c1 (centres undefined)	1.5	2.5	-20.9	.	0.675	2.3	0.3
Cc1ccc(N2C(=O)C3C4C=CC(CNC(=S)N5CCN(c6cccc(C)c6)C(C)C5)(O4)C3C2=O)cc1 (centres undefined)	-0.1	-5.0	.	i	0.694	3.7	14.4
C=CCc1cc(OC)ccc1OCCCCn1cncn1	-1.0	0.5	-6.8	i	0.644	-0.3	5.6
NC(=O)c1ccccc1NC(=O)Nc1ccc(F)c(Cl)c1	-1.1	-0.2	.	i	0.695	-14.7	0.7
COCCCNC(=O)c1ccc2c(=O)n(Cc3ccccc3OC)c(=S)[nH]c2c1	-2.5	0.6	-3.7	i	0.712	6.1	2.6
Cc1cc2cc(C#N)c(NCCNC(=S)NCCCN3CCOCC3)nc2cc1C	-0.4	-1.4	-5.2	.	0.709	-71.0	2.5
Cc1nc(SCC(=O)O)c(C#N)c(-c2ccco2)c1C(=O)N(C)C	-0.1	0.3	-3.8	i	0.651	1.0	-3.5
O=C(/C=C/c1ccco1)NC(=S)Nc1cccc(-c2nc3ccccc3s2)c1	-11.1	4.8	4.7	.	0.789	11.3	5.0
CCOC(=O)c1ccccc1NC(=O)CN(c1ccccc1OCC)S(C)(=O)=O	1.0	4.4	-4.1	.	0.717	2.3	0.1
COC(=O)[C@H](CCSC)NC(=O)NC1CCN(Cc2ccccc2)CC1	0.6	-0.9	-5.2	.	.	3.9	0.1
Cc1ccc(S(=O)(=O)N2CCCC(C)C2)cc1 (centres undefined)	3.0	0.8	-33.6	i	0.684	3.9	2.1
COc1ccc(N2CCN(CCC(=O)c3ccc4ccccc4c3)CC2)cc1	0.3	4.1	9.9	i	0.617	1.5	1.1
O=C(Nc1ccccc1Cl)Oc1ccc(Cl)cc1Cl	-3.8	2.6	0.0	i	.	.	-2.2
CCOC(=O)COc1ccccc1/C=C1/NC(=O)NC1=O	-4.9	-2.1	0.1	i	0.716	5.6	-3.6
Cc1ccc(CSc2nnc(CCCCCNC(=O)OC(C)(C)C)o2)cc1	-2.4	3.2	2.2	i	.	.	-11.5
COc1cc(-c2cc(C(=O)Nc3c(Cl)cc(Cl)cc3Cl)c3ccccc3n2)cc(OC)c1OC	-1.0	-1.9	.	i	0.743	-234.8	24.4
O=c1cnnc(Nc2ccc(Nc3ccccc3)cc2)[nH]1	-1.0	2.7	100.1*	i	0.679	2.0	1.9
COc1cccc(NC(=O)CC2C(=O)NCCN2C(=S)Nc2ccc(F)cc2)c1 (centres undefined)	1.6	-2.4	.	i	0.663	0.8	3.7
CS(=O)(=O)N(CC(=O)N1CCOCC1)c1cc(Cl)ccc1Cl	8.1	-1.2	-2.5	i	0.615	4.2	13.1
O=C(COc1ccc(Br)cc1)Nc1ccc2c(c1)C(=O)NC2=O	-2.2	2.6	-0.7	.	0.706	-0.4	0.9
COc1ccc(C(=O)NC(Oc2ccccc2)C(Cl)(Cl)Cl)cc1 (centres undefined)	2.2	-1.0	1.1	.	0.689	1.9	3.4
CCOc1ccc(C(C(=O)NC2CCCC2)N(C(=O)c2snc(C(N)=O)c2N)C2CCCC2)cc1 (centres undefined)	-0.6	3.4	4.0	i	0.639	-21.3	-13.5
CCn1c(SCc2ccc(F)cc2)nnc1C1CCN(S(=O)(=O)c2ccc(OC)cc2)CC1	-0.6	-0.3	.	.	0.716	-0.8	-7.1
CCN1C(=NCc2cc(OC)c(OC)c(OC)c2)N[C@@H](c2cccc(C(F)(F)F)c2)C(C(=O)OC)=C1C	2.1	-4.2	-8.6	i	.	-24.6	4.8
CCC1CCCCN1S(=O)(=O)c1ccc(NC(=O)CSc2ncccc2C(=O)O)cc1 (centres undefined)	.	3.1	.	.	0.672	0.6	11.0
CC(=O)c1c(C)c[nH]c1C	-3.1	-3.2	-7.0	.	0.724	1.1	0.0
Cc1cccc(C)c1NC(=O)c1cnccn1	-2.2	-1.7	-4.0	i	0.624	-0.7	0.1
COc1cc2c(cc1[N+](=O)[O-])-c1ccccc1C2	.	0.9	.	i	0.681	4.7	0.7
Cc1cc(C(=O)Cn2cc([N+](=O)[O-])ccc2=O)c(C)n1CC1CCCO1 (centres undefined)	.	1.1	.	i	0.689	7.7	-3.9
O=C(C(Cc1ccccc1)N1C(=O)C2C3C=CC(C3)C2C1=O)N1CCCCC1 (centres undefined)	2.0	-5.4	-6.6	.	0.762	-0.4	-3.5
CC(=O)CC1(O)C(=O)Nc2ccccc21 (centres undefined)	-0.4	2.3&7.5	2.3	i	0.672	-0.1	0.5
Cc1[nH]c2ccccc2c1/C=N/NC(=O)CNC(=O)c1ccc2c(c1)OCCO2	4.4	-2.4	4.8	i	.	.	11.6
COc1ccc(-c2oc(NC(=O)c3ccc(C)cc3)c(C#N)c2-c2ccc(OC)cc2)cc1	-9.7	-0.1	-10.2	.	0.725	-4.4	1.6

The list goes on.
Molecule	LANA-H2B inh	HNF4A DNA FP	ALR inh	FGF22 binding	Ecoli growth	UCH37 inh	B2AR ag
Cc1cccc(-c2nc3c(c(SCC(N)=O)n2)CCCC3)c1	1.2	0.4	-1.3	.	0.745	4.0	-6.8
Cc1cc2c(Nc3ccccc3)ncnc2s1	0.1	-2.1	.	i	0.708	2.2	-4.2
Cc1ccc(NC(=O)C2CCCN(C(=O)c3ccc(Cl)cc3)C2)c(C)c1 (centres undefined)	-4.8	-1.9	-15.5	i	0.638	0.9	1.9
CCOC(=O)c1ccc(NC(=O)C2(c3ccc(OC)cc3)CCOCC2)cc1	-0.3	-4.0	0.3	.	0.723	-1.4	5.0
O=C(NCc1ccco1)c1ccc(Cn2c(=O)c3ccccc3n(Cc3cccc(F)c3)c2=O)cc1	-3.6	-3.2	2.4	.	0.727	4.0	2.8
Cc1ccc(C)c(NC(=O)CN(C)C(=O)COc2ccc3ccccc3c2)c1	0.1	2.7	-13.6	.	0.717	2.3	-9.8
O=C(CN1CCC(n2cnc3cc(F)ccc32)CC1)Nc1ccccc1Br	3.2	1.8	-1.8	i	0.659	4.8	3.9
CCC(=O)N1CCCc2cc(S(=O)(=O)N3CCC(N4CCCCC4)CC3)ccc21	0.2	-2.5	.	.	0.69	0.7	-8.4
O=C(O)COc1ccccc1C1C2C(=O)N(c3ccccc3)C(=O)C2ON1c1ccccc1 (centres undefined)	-1.4	-1.1	.	.	0.756	4.8	9.7
O=C(CSc1nc(-c2ccco2)cc(C(F)(F)F)n1)N1CCN(c2cccc(Cl)c2)CC1	-5.1	1.8	-4.7	.	0.772	0.9	-2.2

Bioassay records: PubChem, several laboratories

This is a subset, so the mix of outcomes need not match the whole.
